AID923: qHTS Assay for Allosteric/Competitive Inhibitors of Caspase-1: Spectroscopic Profiling in AFC Spectral Region; compound fluorescence, AFC spectral region (405/520 nm); almost no hit is shown here; Potency, µM (top dose mostly 57.5 µM), without a hit: at the highest dose fluorescence increase, usual class: activators; actives 1.1% (n = 75,000); active = well fitted activation curve with a large enough effect; inconclusive = small, poorly fitted or top-dose-only effect;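 also: potency is read from the fitted curve at half-maximal effect; 0% is about no effect; scaled to a free AFC standard on each plate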
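Compound autofluorescence profiled at 405 nm ex/520 nm em during kinetic caspase 1 run (50 nM enzyme, 5 uM Ac-WEHD-AFC, HEPES pH 7.5, 10 mM DTT). Titration up to 57 uM; baseline from regression intercept, normalized to AFC standard curve.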
Resorufin fluor: compounds fluorescent in resorufin spectral region; Compound fluorescence, resorufin region 547/598 nm, buffer; hits give high values; max dye-equivalent concentration, M; actives 0.04% (n = 59,000); active = above 10 nM dye equivalent; inconclusive = 1 to 10 nM; inactive = 1 nM or less; a few of its hits are not listed in these tables; also: highest value over a series up to 38 µM
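Tris 100 mM pH 8.0; compound added, 15 min RT; CCD imager read, ex 547 nm/em 598 nm; signal normalized to resorufin standard curve (six concentrations per plate) as dye-equivalent concentration.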
A488 fluor: compound fluoresces in the A488 spectral region; compound autofluorescence, A488 spectral region, dye equivalency; hits give high values; max dye equivalency, M; actives 0.1% (n = 59,000); active = above 10 nM dye equivalent; inconclusive = 1 to 10 nM; inactive = 1 nM or less; about half of its hits are not listed in these tables;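 also: highest value over a series up to 38 µM; compound alone in buffer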
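Compounds pin-transferred into 100 mM Tris buffer, pH 8.0, incubated 15 min at room temperature, then imaged with 480 nm excitation/540 nm emission filters. Fluorescence converted to Alexa 488 dye-equivalent concentration via an on-plate six-point A488 standard curve.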
TSHR ag: agonists of human thyroid stimulating hormone receptor; Potency, µM (highest dose often 57.1 µM), for the others: top-dose activation, hits mostly activators; actives 0.48% (n = 73,000); HEK293-CNG-TSHR cells (CNG channel as cAMP sensor), membrane potential dye, cAMP; AID 926; active = well fitted activation curve of enough size with the parental cells flat; inconclusive = any curve in the parental cells; inactive = parental cells flat and receptor cells flat or falling; also: potency is read from the fitted curve at half-maximal effect; % of control where 0% means no effect; weak receptor curves with flat parental cells got no call and are not listed
Target sequence (P16473 whole entry, looked up): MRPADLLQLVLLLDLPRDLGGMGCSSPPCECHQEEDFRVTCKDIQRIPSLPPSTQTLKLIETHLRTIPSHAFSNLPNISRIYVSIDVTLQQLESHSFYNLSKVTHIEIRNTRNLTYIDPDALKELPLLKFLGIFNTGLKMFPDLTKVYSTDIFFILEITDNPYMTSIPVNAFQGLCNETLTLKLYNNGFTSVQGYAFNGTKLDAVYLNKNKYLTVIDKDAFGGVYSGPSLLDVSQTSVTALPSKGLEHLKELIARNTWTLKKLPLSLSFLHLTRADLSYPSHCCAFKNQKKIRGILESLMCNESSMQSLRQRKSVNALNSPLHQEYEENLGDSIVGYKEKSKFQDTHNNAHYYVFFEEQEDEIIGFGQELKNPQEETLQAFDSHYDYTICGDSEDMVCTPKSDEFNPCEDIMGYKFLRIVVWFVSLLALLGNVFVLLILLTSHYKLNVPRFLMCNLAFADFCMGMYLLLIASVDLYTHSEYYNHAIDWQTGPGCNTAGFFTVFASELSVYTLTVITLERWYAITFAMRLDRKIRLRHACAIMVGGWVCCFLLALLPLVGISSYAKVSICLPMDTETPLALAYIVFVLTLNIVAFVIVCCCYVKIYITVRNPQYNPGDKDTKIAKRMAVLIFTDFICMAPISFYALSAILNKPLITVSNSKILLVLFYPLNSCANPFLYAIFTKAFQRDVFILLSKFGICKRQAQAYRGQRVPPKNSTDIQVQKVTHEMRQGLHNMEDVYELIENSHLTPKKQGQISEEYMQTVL
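cAMP rise detected as CNG-channel membrane depolarization by fluorescent dye (emission 590 nm), 30 min after compound, following 60 min dye loading containing 100 uM RO 20-1724 at room temperature. Cells: TSHR/CNG HEK 293, with parental CNG HEK 293 as control.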
A647 fluor: compound autofluorescence in A647 spectral region | Compound fluorescence, A647 channel (570/671 nm), Tris buffer | max dye-equivalent concentration, M | 59,000 tested, under 10 active; active means above 1 µM dye equivalent; inconclusive means 0.1 to 1 µM; inactive means 0.1 µM or less;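 also: values scaled relative to a standard on each plate; highest value over a series up to 38 µM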
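Fluorescence read (570 nm ex, 671 nm em) after 15 min RT incubation of compounds in 100 mM Tris buffer, pH 8.0; values expressed as dye-equivalent concentration against a six-point A647 standard series on each plate.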
The depositor's hits bear a star; i = inactive; ? = inconclusive; · = not tested or not shown; & = joins results of further samples; [ ] = another dose, or the depositor's remark.

mol | AID923 | TSHR ag | Resorufin fluor | A488 fluor | A647 fluor
CC(C)(C)c1cc(C(F)(F)F)nc(SCCCNC(=O)c2ccco2)n1 | -0.1% | 25µM* | i | i | 3.3e-08
CC(=O)[C@H](CC(C)C)NC(=O)[C@@H](CC(C)C)NC(=O)[C@H](CC(C)C)NC(=O)OCc1ccccc1 | -2.7% | ? | · | · | ·
CCCn1c(=O)c2ccccc2n2c(SCCOc3ccc(OC)cc3)nnc12 | 0.8% | ? | i | i | 5.1e-09
CC1(C)[C@@H]2CC[C@@](C)(C2)[C@H]1OC(=O)c1ccccc1C(=O)O | 0.7%[11.5 µM] | 6%[11.4 µM] | i | i | 5.4e-08
O=C1CC(c2nc3ccccc3[nH]2)CN1c1cccc(C(F)(F)F)c1 (stereo not given) | -0.9% | -4% | · | · | ·
CCC(C)Oc1cccc(C(=O)Nc2ccccc2N2CCOCC2)c1 (stereo not given) | -2.5% | · | i | i | 9.9e-09
O=C(CSc1nnc(Cn2c(=O)sc3ccccc32)n1CCc1ccccc1)N1CCOCC1 | -2.2% | 4% | i | i | 3.7e-08
CCN(CC)S(=O)(=O)c1ccc(C(=O)OCCN2C(=O)CCC2=O)cc1 | -2.1% | 0% | · | · | ·
COc1ccccc1-c1c(C)oc2c(CN3CCN(CCO)CC3)c(O)ccc2c1=O | 2.1% | 7% | i | i | 1e-09
Cc1ccc(C)c(NC(=O)C2CCC(C)(C(=O)O)C2(C)C)c1 (stereo not given) | 3.4% | -7%[11.4 µM] | · | · | ·
CCCCNC(=O)c1ccc(NC(=O)C2CCCO2)cc1 (stereo not given) | -2.1% | 4%[11.4 µM] | i | i | 8.2e-09
O=C(/C=C\Nc1ccccn1)c1ccc(Cl)cc1 | 19% | 16% | · | · | ·
CCOC(=O)c1ccc(NC(=O)CCNS(=O)(=O)c2ccc3c(c2)oc(=O)n3C)cc1 | -0.7% | -1% | i | i | 2.7e-08
C=CCn1c(SCC(=O)NC(=O)NCC(C)C)nnc1C1CCCCC1 | 0.4% | ? | i | i | 1e-09
CCOC(=O)Nc1cc(C(=O)OC)cc(C(=O)OC)c1 | 0.6% | -4% | i | i | 1e-09
Oc1ccccc1N=Cc1ccc[nH]1 | -0.2% | ? | i | i | 2.9e-08
CCOc1ccc(CNc2ccc(N3CCCC3)cc2)cc1 | 2.0% | 10% | i | i | 1e-09
CCC(C)(C)n1nnnc1C(c1cc2ccc(OC)cc2[nH]c1=O)N1CCN(C2CCCCC2)CC1 (stereo not given) | 4.7% | 0% | i | i | 1e-09
CC(=O)NC(CCS(C)(=O)=O)C(=O)Nc1cc(C)ccc1C (stereo not given) | 0.3% | 3% | · | · | ·
COCCn1c(SCC(=O)c2ccc(Cl)cc2)nnc1C(C)C | -0.5% | 2% | i | i | 1.1e-09
N#Cc1ccccc1NC(=O)c1ccccc1OCC(=O)Nc1ccc2c(c1)oc1ccccc12 | -2.0% | -1% | i | i | 6.6e-09
Cc1cccc(-n2c(N)cc(=O)nc2SCC(=O)Nc2cc(C)on2)c1 | 0.6% | 1% | i | i | 4.5e-08
CC(=O)O[C@H]1C[C@H]2CC[C@@H]3[C@H]4C[C@@H]([N+]5(C)CCCCC5)[C@@H](OC(C)=O)[C@]4(C)CC[C@@H]3[C@@]2(C)C[C@@H]1[N+]1(C)CCCCC1 | -1.3% | 0% | · | · | ·
Cn1c(Cn2nnc3ccccc32)nnc1SCC(N)=O | 1.6% | -2% | i | i | 1e-09
C=CCn1c(SCCC(=O)O)nnc1-c1cccs1 | -2.1% | -13% | i | i | 2.3e-08
COc1cccc(-c2cc(NCc3ccc(OC)cc3OC)ncn2)c1 | 2.6% | ? | i | i | 1e-09
Cc1cc(C(=O)CSc2nnc(N)s2)c(C)n1CCc1ccc(F)cc1 | -1.7% | ? | i | i | 6.1e-09
CCOC(=O)N1CCN(C(=O)c2ccc(CS(=O)(=O)c3ccccc3OC)o2)CC1 | 0.8% | -2% | i | i | 1e-09
CC1(C)NC(=O)N(c2ccc([N+](=O)[O-])c(C(F)(F)F)c2)C1=O | -4.1% | -1% | i | i | 2.4e-08&5.1e-08
CCCc1nc2n[nH]c(N)c2c2c1CCC2 | -0.2% | 26% | i | i | 1.3e-08
O=C(Cn1cnc2c(nnn2Cc2ccccc2F)c1=O)N1CCN(c2ccccc2)CC1 | -0.6% | ? | i | i | 1e-09
CCCCCC(=O)Nc1ccc2oc(-c3ccncc3)nc2c1 | 2.7% | -9% | i | i | 1e-09
CC(=O)NCCc1nc2ccccc2[nH]1 | 1.5% | 0% | · | · | ·
COc1ccc(CNc2nc(NCc3ccc(OC)cc3)n(S(C)(=O)=O)n2)cc1 | 0.1% | 27% | i | i | 2.7e-09
COCC(=O)Nc1c(C(=O)Nc2ccccc2OC)oc2ccccc12 | 5.3% | ? | i | i | 1.9e-08
O=C(CN1CCOCC1)N1CCN(S(=O)(=O)c2ccccc2)C1c1ccccc1 (stereo not given) | 0.3% | ? | i | i | 9.5e-09
C=CCn1c(CC#N)nnc1N1CCOCC1 | -0.6% | -1% | i | i | 1.9e-09
CCOc1ccccc1N(CC(=O)N1CCOCC1)S(=O)(=O)c1ccc(SC)cc1 | -1.5% | ? | i | i | 3.1e-08
CCc1cc(=O)oc2cc(OC(C)C(=O)O)c(Cl)cc12 (stereo not given) | 1.9% | -2% | i | i | 1e-09
CCSc1oc(-c2ccco2)nc1S(=O)(=O)c1ccccc1 | 1.3% | 9%[11.4 µM] | i | i | 2.2e-08
O=C(CN(Cc1ccccc1F)C(=O)c1ccco1)NCc1ccc(F)cc1 | 3.7% | 11% | i | i | 1e-09
CC(=O)OCc1cc2cc(C)ccc2[nH]c1=O | 0.2% | 1% | i | i | 7e-09
Cn1c(=N)n(CC(O)c2cccc3ccccc23)c2ccccc21 (stereo not given) | -0.5% | ? | i | i | 2.6e-08
CN1C(C(=O)Nc2ccccn2)=C(O)c2ccccc2S1(=O)=O | 1.4% | 6% | i | i | 4.2e-08&3.2e-08&1e-09&5.2e-08
CCn1nnnc1SCC(=O)N(C1CCCCC1)C1CCCCC1 | -0.2% | 0% | i | i | 2e-08
CCS(=O)(=O)N1CCC(C(=O)NCCc2ccc(OC)c(OC)c2)CC1 | 0.4% | -2% | i | i | 1e-09
OC(CCN1CCOCC1)(c1ccc(Cl)cc1)C1CCCCC1 (stereo not given) | -3.3% | ? | i | i | 1e-09
O=C1CCCC2=C1C(c1cccs1)n1nc(SCc3ccccc3F)nc1N2 (stereo not given) | 1.4% | · | i | i | 2.7e-08
C=CCSc1nc2c(c(=O)n(C)c(=O)n2C)n1CC | 1.7% | 8% | i | i | 4.3e-08
COCCCNC(=O)CC(NS(=O)(=O)c1ccc(Cl)cc1)c1ccco1 (stereo not given) | 1.5% | 15% | i | i | 3.7e-08
Nc1nonc1-n1nncc1-c1ccccc1 | 0.5% | -1% | i | i | 3.9e-09
CCc1cc2c(NCCN3CCCCC3)ncnc2s1 | -0.6% | 3% | i | i | 5.1e-08
Cc1ccc(-c2nnc3c4ccccc4c(C)nn23)cc1NC(=O)CN1CCOCC1 | -0.6% | -3% | i | i | 1e-09
COc1cccc(-n2c(SCC(N)=O)nnc2-c2ccncc2)c1 | 0.3% | 2% | i | i | 1e-09
Clc1ccc(Cl)c(-c2nn3c(Cn4cnc5ccccc54)nnc3s2)c1 | -0.9% | ? | i | i | 2.1e-08
COc1ccc(-c2noc(CCC(=O)N3CCN(Cc4ccccc4)CC3)n2)cc1 | 0.0% | ? | i | i | 1e-09
O=C(CCN1CCc2ccccc2C1)Nc1ccc(F)cc1 | 0.2% | -2% | i | i | 1.4e-08
COC(=O)NC(c1cccs1)C(C(C)=O)C(=O)OC (stereo not given) | -2.7%[11.5 µM] | 4%[11.4 µM] | · | · | ·
CCOc1ccc(N2C(=O)CSC2c2ccncc2)cc1 (stereo not given) | -0.2% | 2% | i | i | 1e-09
Cc1cccc(OCCn2c(CCCO)nc3ccccc32)c1 | -1.0% | ? | i | i | 1.7e-08

In another format: entries from further up
SMILES: Cc1ccc(-c2nnc3c4ccccc4c(C)nn23)cc1NC(=O)CN1CCOCC1
  AID923: -0.6%
  TSHR ag: -3%
  Resorufin fluor: i
  A488 fluor: i
  A647 fluor: 1e-09
SMILES: CCS(=O)(=O)N1CCC(C(=O)NCCc2ccc(OC)c(OC)c2)CC1
  AID923: 0.4%
  TSHR ag: -2%
  Resorufin fluor: i
  A488 fluor: i
  A647 fluor: 1e-09

Arranged by count of non-hydrogen atoms (falling): some entries from above.
mol | AID923 | TSHR ag | Resorufin fluor | A488 fluor | A647 fluor
O=C1CCCC2=C1C(c1cccs1)n1nc(SCc3ccccc3F)nc1N2 (stereo not given) | 1.4% | · | i | i | 2.7e-08
CCS(=O)(=O)N1CCC(C(=O)NCCc2ccc(OC)c(OC)c2)CC1 | 0.4% | -2% | i | i | 1e-09
COc1cccc(-n2c(SCC(N)=O)nnc2-c2ccncc2)c1 | 0.3% | 2% | i | i | 1e-09
OC(CCN1CCOCC1)(c1ccc(Cl)cc1)C1CCCCC1 (stereo not given) | -3.3% | ? | i | i | 1e-09
O=C(CCN1CCc2ccccc2C1)Nc1ccc(F)cc1 | 0.2% | -2% | i | i | 1.4e-08
COC(=O)NC(c1cccs1)C(C(C)=O)C(=O)OC (stereo not given) | -2.7%[11.5 µM] | 4%[11.4 µM] | · | · | ·

The results go on:
mol | AID923 | TSHR ag | Resorufin fluor | A488 fluor | A647 fluor
O=C(COc1ccc2ccccc2c1Br)Nn1cnnc1 | -1.0% | 18% | i | i | 1e-09
Cc1cc(NC(=O)c2ccc(NC(=O)c3cccs3)cc2)no1 | 1.6% | -2% | i | i | 1.4e-08
CC(=O)OCC(OC(C)=O)C(OC(C)=O)C(OC(C)=O)C(=O)Nc1ccc(C)cc1 (stereo not given) | -0.2% | 5% | i | i | 1.9e-08
COC(=O)C1=C(N)Oc2cc(C)oc(=O)c2C1c1ccncc1 (stereo not given) | · | · | i | i | 2.7e-08
COC(=O)c1nc2n(n1)C(c1cccc(Cl)c1)C1=C(CCCC1=O)N2 (stereo not given) | 0.1% | -2% | · | · | ·
CCc1nc(Sc2nc(C)cc(C)n2)c2oc3ccccc3c2n1 | 1.5% | · | i | i | 2.9e-08
Cc1nc(N2CCCC2)c2ccsc2n1 | -0.9% | -2% | i | i | 3.2e-08
COc1cccc(Cn2c(=O)c(-c3ccc(F)cc3)nc3cnc(OC)nc32)c1 | 3.9% | 1% | i | i | 1e-09
Cc1cc2c(cc1C)C(=O)NC(C)(C)C2 | -0.2% | 1% | · | · | ·
COc1cc(NC(=O)Nc2ccccc2OC)c(OC)cc1NC(=O)CN1CCCCC1 | -1.1% | ? | i | i | 6.9e-08
N#Cc1c(NC(=O)CSc2ncn(-c3ccccc3)n2)sc2c1CCCC2 | -0.1% | 3% | i | i | 5e-09
Cc1c(NC(=O)c2cc(-n3cnnc3)ccc2Cl)cccc1-c1nc2ccccc2o1 | -0.6% | · | i | i | 1e-09
Cc1nnc(SCC(=O)NCc2ccc3c(c2)OCO3)[nH]c1=O | 0.4% | -1% | i | i | 6.2e-09
Cc1cc2c(cc(C(=O)OC(C(=O)NCc3ccco3)C(C)C)n2C)o1 (stereo not given) | 0.3% | 27% | i | i | 2.6e-08
CCn1c(SCC(=O)Nc2cc(C)ccc2C)nc2c(c1=O)SC(C)C2 (stereo not given) | -1.2% | ? | · | · | ·
CCSc1nc(C)cc(Oc2ccc(=O)n(C)n2)n1 | -2.3% | 1% | i | i | 2.7e-08
COC(=O)c1[nH]c2ccccc2c1NC(=O)CN1CCN(c2cccc(OC)c2)C(C)C1 (stereo not given) | 1.8% | 2% | i | i | 8.1e-09
Oc1ccccc1C1=Nc2ccccc2N=C(c2ccco2)C1 | 20% | 90% | i | i | 1e-09
CC(=O)N1CCN(c2ccccc2NC(=O)COc2ccc(Cl)cc2Cl)CC1 | -0.6% | 28% | i | i | 4.5e-09
Cn1c(=O)c(C(=O)Nc2cnccn2)c(O)c2ccccc21 | -0.4% | -3% | i | i | 4.1e-09

Screening data (PubChem BioAssay)

Only part of the results is shown (hit frequency here may not be typical).
